TAR Tat displ: HIV-1 TAR-Tat binding disruption; actives 0.6% (n = 100,000); AID 1259389; z-score (concentration not given with the values); HIV-1 TAR RNA, Tat peptide displacement FRET; active compounds read high;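 note: score is relative to mean and SD of negative controls; some compounds called inactive have numbers as strong as hits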
CDC25B-CDK2 inh: human CDC25B-CDK2/CyclinA binding inhibition; HTRF CDC25B-CDK2/CyclinA binding, anti-His/anti-Flag; active compounds read high; z-score (concentration not given with the values); actives 0.72% (n = 94,000);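 note: score is relative to mean and SD of negative controls; strong numbers were not always called active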
An asterisk follows results filed as active; / = not tested or not shown.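 Rule for the calls: active = z-score from 3 up in half or more of its runs; inactive = the rest.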

SMILES	TAR Tat displ	CDC25B-CDK2 inh
CC1=C(C(=O)OC2CCCCC2)C(c2coc3ccc(C)cc3c2=O)C2=C(CC(C)(C)CC2=O)N1 (stereo not drawn)	-0.28	-1.4
CCOc1c(NN(C)C)c(=O)c1=O	/	-2.2
C[C@@H]1OC(Oc2ccccc2-c2cc(=O)c3c(O)cc(O)c([C@@H]4O[C@H](CO)[C@@H](O)[C@H](O)[C@H]4O)c3o2)[C@H](O)[C@H](O)[C@H]1O (stereo partly drawn)	2	/
O=C(CC(=O)N1CCc2ccccc21)Nc1ccc2nc3n(c(=O)c2c1)CCCCC3	-0.14	0.52
Cc1cc(N(CCO)CCO)n2nc(Cc3ccc(Cl)cc3)nc2n1	1.2	-1.4
Cc1ccc(S(=O)(=O)NCCc2csc3nc(-c4ccc(Cl)cc4)nn23)cc1	0.5	/
O=C(Nc1ccc(Br)cc1F)N1CCCC1c1ccco1 (stereo not drawn)	0.83	-2.1
COC(=O)c1c(C)nc(C)c(C(=O)OC)c1-c1cccs1	/	0.05
COc1ccc2nc(NC(=O)Nc3ccc4c(c3)N(C)C(=O)CS4)sc2c1	0.59	-0.77
CCn1cc(C(=O)OCC(=O)c2ccc(C)cc2)c(=O)c2ccc(C)nc21	/	-2.4
CCOC(=O)C1=CN(c2cc(C)ccc2C)C=C(C(=O)OCC)C1c1ccc2c(c1)OCO2	/	-2.4
COc1ccccc1NC(=O)c1sc(=S)n2c1[nH]c(=O)c1ccccc12	-0.71	/
CN(C)c1ccc(/C=N/N)cc1	/	-0.97
CN(C)c1ccc(-c2nc3c(c(=O)[nH]2)Cc2ccccc2O3)cc1	0.44	-2.5
CC(=O)Nc1ccccc1NC(C)=O	/	-0.99
CC(C)(C)C1CCc2c(sc3nc(CCC(=O)N4CCc5ccccc5C4)[nH]c(=O)c23)C1 (stereo not drawn)	0.84	/
Nc1nc(Nc2ccccc2)n[nH]1	/	-3
CN(C)c1ccc(CN(C(=O)c2cc(-c3cccs3)on2)C2CCS(=O)(=O)C2)cc1 (stereo not drawn)	3	-2.3
CC1(C)CC(=O)C2=C(C1)Nc1ccccc1N(CC(=O)NCC1CCCO1)C2c1ccccc1 (stereo not drawn)	-1.4	/
O=C(NCc1ccc2c(c1)OCO2)c1cc2cccc3c2n1CCS3	0.71	/
CCS(=O)(=O)N1CCC2(CC1)OC(=O)C(C)=C2C(=O)N1CCN(c2ccccn2)CC1	0.2	/
CC(C)(C)c1ccc(-c2nnc3sc(-c4ccncc4)nn23)cc1	/	0.45
Cc1nc(N2CCOCC2)cc(N2CCN(S(=O)(=O)c3ccc(Cl)cc3)CC2)n1	0.64	-2
CC(C)(C)NS(=O)(=O)c1cn(CC(=O)N2CCCC2)cc1S(=O)(=O)NC(C)(C)C	1.2	/
Cc1nc2sccn2c(=O)c1S(=O)(=O)Nc1ccc(Br)cc1F	1.8	/

Other entries.
SMILES	TAR Tat displ	CDC25B-CDK2 inh
COC(=O)C1=C(C)NC2=C(C(=O)CC(c3ccc(Cl)cc3)C2)C1c1cc(OC)ccc1OC (stereo not drawn)	1.4	0.05
COc1ccc(OC)c(NC(=O)Nc2nnc(N(C)C3CCCCC3)s2)c1	2.2	-0.44
Cc1nc2ccc(S(=O)(=O)NC(CC(C)C)C(=O)N3CCCC(C)C3)cc2s1 (stereo not drawn)	3.2	-1.9
CCCCNS(=O)(=O)c1ccc(N2CCCCS2(=O)=O)cc1	-0.94	/
O=C(c1cccc(NC2=NC3CS(=O)(=O)CC3S2)c1)N1CCN(C2CCCCC2)CC1 (stereo not drawn)	0.61	0.44
O=C1CC(c2ccccc2)Cc2[nH]c(=O)c(-c3nc(-c4ccc(F)cc4)cs3)cc21 (stereo not drawn)	2.2	-1.7
Cc1cc(N)c(-n2cc3c(c2-c2cccc(Br)c2)c(=O)n(C)c(=O)n3C)cc1C	0.05	0.27
O=C(c1ccco1)N1CCN(C(=O)C2CC(c3ccc(Cl)cc3)=NO2)CC1 (stereo not drawn)	2	-0.76
COc1nc(-c2ccccc2)c2cc(C)ccc2n1	2	/
Cc1ccc(CN2CNc3c(-c4ccccc4F)c(C)nn3C2)cc1	1.2	-1.6
Cc1cc(C)n(-c2nc3c(c(=O)[nH]c(=O)n3C)n2CCOc2ccccc2)n1	1.7	-0.76
COC(=O)c1ccsc1NC(C)=O	/	-0.89
CCCCC1CCC(C(=O)Nc2c3c(nn2-c2ccc(F)cc2)CS(=O)(=O)C3)CC1 (stereo not drawn)	1.1	/
CN(C)CCCn1c(C2CC(=O)N(c3ccccc3)C2)nc2ccccc21 (stereo not drawn)	-0.68	-1.1
CCOC(=O)c1sc(N2C(=O)c3oc4ccccc4c(=O)c3C2c2cccc(O)c2)nc1C (stereo not drawn)	-1.4	0.77
O=C(NC(=O)c1cnccc1C(F)(F)F)Nc1ccccc1	/	0.32
CSc1cccc(NS(=O)(=O)c2c(C(=O)N3CCCC3)c(C)n(C)c2C)c1	1.5	/
CCSc1ncc2c(=O)n(CC(=O)Nc3ccc(Br)cc3)cnc2n1	-0.21	/
CCCN1CCc2nc(NC(=O)c3sc4ccccc4c3Cl)sc2C1	-0.1	/
COc1cc(Nc2cc(C)nc3ncnn23)cc(OC)c1	/	-3
COc1ccc(OC)c(NS(=O)(=O)c2ccc(-c3n[nH]c(C)c3C)s2)c1	-0.81	/
O=S(=O)(c1ccc(Cl)cc1)N1CCC(N2CCCCC2)CC1	1.2	0.31
O=S(=O)(NCCc1nc(-c2ccccc2Cl)no1)c1ccccc1	0.15	0.04
CC(NCC(O)Cn1c2ccccc2c2ccccc21)C(=O)O (stereo not drawn)	0.43	-1.5
O=C(CCN1C(=O)c2ccccc2C1=O)Nc1ccc(-c2ccccc2)cc1	/	-2.5

Part of the list above in order of heavy-atom count, smallest number first.
SMILES	TAR Tat displ	CDC25B-CDK2 inh
CCCCNS(=O)(=O)c1ccc(N2CCCCS2(=O)=O)cc1	-0.94	/
CN(C)CCCn1c(C2CC(=O)N(c3ccccc3)C2)nc2ccccc21 (stereo not drawn)	-0.68	-1.1
Cc1nc2ccc(S(=O)(=O)NC(CC(C)C)C(=O)N3CCCC(C)C3)cc2s1 (stereo not drawn)	3.2	-1.9

The listing continues:
SMILES	TAR Tat displ	CDC25B-CDK2 inh
Oc1ccc(Br)cc1C=NCc1cccnc1	/	-1.3
CCOC(=O)c1cnc(Nc2nc3ccccc3s2)nc1CSc1nccc(C)n1	1.9	-1.1
Cc1ccc(-c2nc(C)c(CCNS(=O)(=O)c3ccc(Br)cc3)s2)cc1	1.7	/
CCOC(=O)C1CCN(C(=O)CC(C)S(=O)(=O)c2ccc3c(c2)NC(=O)CO3)CC1 (stereo not drawn)	0.45	/
O=C(CSc1ncc(S(=O)(=O)c2ccc(Cl)cc2)c(=O)[nH]1)N1CCCc2ccccc21	1.8	-1.3
Cc1sc(NC(=O)CN2CCN(c3ccccc3)CC2)c(C#N)c1C	/	-0.86
O=C(/C=C/c1cccc2ccccc12)Nc1ccc(S(=O)(=O)N2CCc3ccccc32)cc1	/	-8.6
CC(=O)Nc1ccc(-c2nc(-c3ccc4c(c3)C(=O)c3cc([N+](=O)[O-])ccc3-4)c(-c3ccccc3)[nH]2)cc1	/	-4.8
Cc1ccc(-n2cc3ccccc3c2C#N)nc1	/	-2.3
NS(=O)(=O)c1ccc(NC(=O)C2CCN(c3ncnc4c3nc3n4CCCCC3)CC2)cc1	-0.11	/
CCC(C(=O)N1CCc2ccccc2C1)n1nc(C)c2sc3ccccc3c2c1=O (stereo not drawn)	2.7	-2.1
CCN1CCN(C(=O)[C@@H]2[C@@H]3C(=O)O[C@@H]4C(Cl)[C@H]2C[C@H]34)CC1 (stereo partly drawn)	0.9	/
O=C1C(=O)N2C(=C1C(=O)N1CCOCC1)c1ccccc1CC21CCCCC1	-0.82	-3.2
O=C(Cc1csc2nc(-c3ccc(F)cc3)cn12)N1CCCC1	1.1	/
O=C(NCc1ccccn1)C1CCC(CNc2nc(=S)[nH]c3ccccc23)CC1 (stereo not drawn)	/	0.46
CN1CCN(C(=O)C2CC3CCCN3C23C(=O)N(C)c2ccccc23)CC1 (stereo not drawn)	-5	/
COc1cc(C2C(C#N)=C(N)Oc3cc(O)ccc32)cc(Br)c1OC (stereo not drawn)	/	-3.4
O=c1c2cc3ccccc3n2cnn1Cc1ccccc1F	2.9	-2.1
CC(=O)CCCCn1cnc2c1c(=O)n(C)c(=O)n2C	1.1	/
Cc1cccn2c(=O)c3cc(C(=O)N4CCOCC4)sc3nc12	/	-0.8
O=C(NC(=O)c1ccccc1C(F)(F)F)NN1CCCCC1	/	-1.7
Cc1cccn2c(=O)c3cc(C#N)c(=O)n(Cc4ccccc4Cl)c3nc12	1.3	1.1
CN1CCc2c(n(CC(O)CN3CCOCC3)c3ccccc23)C1=O (stereo not drawn)	/	-1.9
O=C(Nc1cccc(Cl)c1)c1cnccn1	/	-0.23
O=C(CCc1nc(-c2cccs2)no1)NCc1ccccn1	-0.6	-0.92

Entries from the list above that have a Cl atom:
SMILES	TAR Tat displ	CDC25B-CDK2 inh
Cc1cc(N(CCO)CCO)n2nc(Cc3ccc(Cl)cc3)nc2n1	1.2	-1.4
Cc1ccc(S(=O)(=O)NCCc2csc3nc(-c4ccc(Cl)cc4)nn23)cc1	0.5	/
Cc1nc(N2CCOCC2)cc(N2CCN(S(=O)(=O)c3ccc(Cl)cc3)CC2)n1	0.64	-2
COC(=O)C1=C(C)NC2=C(C(=O)CC(c3ccc(Cl)cc3)C2)C1c1cc(OC)ccc1OC (stereo not drawn)	1.4	0.05
O=C(c1ccco1)N1CCN(C(=O)C2CC(c3ccc(Cl)cc3)=NO2)CC1 (stereo not drawn)	2	-0.76
CCCN1CCc2nc(NC(=O)c3sc4ccccc4c3Cl)sc2C1	-0.1	/
O=S(=O)(c1ccc(Cl)cc1)N1CCC(N2CCCCC2)CC1	1.2	0.31
O=S(=O)(NCCc1nc(-c2ccccc2Cl)no1)c1ccccc1	0.15	0.04
O=C(CSc1ncc(S(=O)(=O)c2ccc(Cl)cc2)c(=O)[nH]1)N1CCCc2ccccc21	1.8	-1.3
CCN1CCN(C(=O)[C@@H]2[C@@H]3C(=O)O[C@@H]4C(Cl)[C@H]2C[C@H]34)CC1 (stereo partly drawn)	0.9	/
Cc1cccn2c(=O)c3cc(C#N)c(=O)n(Cc4ccccc4Cl)c3nc12	1.3	1.1
O=C(Nc1cccc(Cl)c1)c1cnccn1	/	-0.23

Next part.
SMILES	TAR Tat displ	CDC25B-CDK2 inh
COCc1nnc(NC(=O)Cn2cnc3c2c(=O)n(C)c(=O)n3C)s1	/	-1.5
Cc1cc(C)cc(-n2cc[nH]c(=O)c2=O)c1	0.17	-1
Cn1nc(-c2ccccc2)c(-c2ccccc2)c(C(=O)N2CCOCC2)c1=O	3.1	-3.2
COC(=O)C1=C(OC(C)=O)c2ccccc2S(=O)(=O)N1C(C)C	1.4	-1.1
CCOC(=O)c1sc2ncnc(Oc3ccc4cnccc4c3)c2c1C	0.67	/
CC1CN(C(=O)Nc2cccc(Cl)c2)c2ccccc2O1 (stereo not drawn)	1.1	/
O=C1CC(c2cccc(F)c2)c2c(n[nH]c2-c2ccccc2)N1 (stereo not drawn)	-0.16	-0.72
CC(C)(C)c1csc(NC(=O)c2cccc(Cl)c2)n1	/	-0.32
O=C1CN(Cc2ccc(F)cc2Cl)S(=O)(=O)c2ccccc2N1Cc1ccc(F)cc1	1.1	/
CN(C)CCC(=O)Nc1c2c(nc3ccccc13)N(C)CC2	/	-0.22
O=C1Nc2ccccc2C1Cc1ccccc1Cl (stereo not drawn)	1.9	0.6
CCc1nn(CC(=O)NCc2cccs2)c(=O)c2cc3sccc3n12	0.54	-0.41
O=C(NC(NCc1ccccn1)(C(F)(F)F)C(F)(F)F)c1cccnc1	/	-2.1
CN1C(=O)c2[nH]nc(-c3ccccc3)c2C1c1ccccn1 (stereo not drawn)	1.5	-0.28
CC(C)Oc1cc(O)c2c(=O)c(-c3ccc(O)cc3)coc2c1	-0.35	-0.83
CCOC(=O)c1c(S(=O)(=O)N(Cc2cccs2)C2CCCC2)c(C)n(C)c1C	1.5	/
O=C(Cn1c(=O)c2cccn2c2ccc(F)cc21)NCc1ccccn1	1.3	/
CCCCN(CC)C(=O)c1sc2nc3n(c(=O)c2c1C)CCCC3	0.38	/
C=C1C(N)CC2CC1C2(C)C (stereo not drawn)	3	/
CCOc1ccc(C2Nn3c(C)nnc3SC2C(=O)NCC2CCCO2)cc1 (stereo not drawn)	-1.3	0.68
O=c1c(S(=O)(=O)c2ccccc2)cn(Cc2ccccc2)c2cc(N3CCOCC3)c(F)cc12	0.22	/
COCCCNS(=O)(=O)c1cc2[nH]c3c(c2cc1C)C(=O)CCC3	-0.1	/
CC(C)NC(=O)c1cc2n(n1)CC(C)(C(=O)NC1CCCC1)N(C)C2=O (stereo not drawn)	-0.94	/
O=C(Cn1c(=O)n(CC2CCCO2)c(=O)c2ccccc21)Nc1ccc2c(c1)OCCO2 (stereo not drawn)	/	0.8
Cc1cc(Nc2ccccc2)nc(N2CCN(C(=O)Nc3ccc(Cl)cc3)CC2)n1	-6.5	/

Remaining list, next part
SMILES	TAR Tat displ	CDC25B-CDK2 inh
C=CCOc1ccc(C2c3c(oc4ccc(C)cc4c3=O)C(=O)N2CCCN(C)C)cc1OCC (stereo not drawn)	-0.64	0.19
CCc1ccc(NCc2c(CO)cnc(C)c2O)cc1	0.76	/
CSc1nn(C(C)C)c2nc3c(c(=O)n12)C(C)(C)Cc1ccccc1-3	0.36	-0.94
O=C1CS/C(=N/N=C/c2cn(-c3ccccc3)nc2-c2ccccc2)N1	/	-1.4
Cc1ccc(C(=O)C2C(c3ccc(C)cc3)NC(=O)NC2(O)C(F)(F)F)cc1 (stereo not drawn)	/	-1.1
CC(C)C(NS(=O)(=O)c1ccc2[nH]c3c(c2c1)CCCC3)c1cccs1 (stereo not drawn)	0.05	/
Cc1cc2c(cc(C(=O)O)n2C)s1	0.87	4.2
CCCCN1CCS(=O)(=O)c2c(Cl)c(N3CCOCC3)nc(Oc3ccc(OC)cc3)c21	0.75	8.3
Cc1nc(-c2noc(C(=O)NNC(=O)Nc3cccc(C(F)(F)F)c3)n2)cs1	/	-0.89
Cc1[nH]nc(NC(=O)c2ccccn2)c1Br	1.4	/
O=C(CSc1nnc(-c2cc3ccccc3[nH]2)o1)Nc1ccc2c(c1)OCO2	-0.02	-4.5
Cc1ccnc(NC(=O)c2noc3c2CSc2ccccc2-3)c1	1.2	-1.4
